# Screens as filed in PubChem.
# Arbovirus inh = antivirals against arbovirus infection, primary screen, cell-based, full library, 10K replicate subset. arbovirus infection cell-based antiviral screen. inhibition, % at 10 µM. 200,000 compounds, 0.37% hits. AID 1251, 2008;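 active = inhibition from about 30%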;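 also: bluetongue infection of BSR cells; cell survival read as ATP light after 72 h; 0% = infected wells without compound and 100% = uninfected wells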
# Mtb growth = M. tuberculosis H37Rv growth inhibitors, H37Rv strain (AID 1626) | 220,000 compounds, 0.95% hits | one-dose inhibition, % at 10 µM; IC50 in µM for titrated hits | M. tuberculosis H37Rv growth inhibition; higher % means a stronger effect;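 active = confirmed in a dose series; inconclusive = inhibition above 80% but not taken into the dose series; inactive = below 80% or under 30% at every dose of the series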;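 also: bacteria incubated seven days before Alamar blue readout; 0% = bacteria only wells and 100% = bacteria with antibiotic wells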
# Mtb betalactam = beta-lactam sensitization of Mtb H37Rv, H37Rv | 330,000 compounds, 0.27% hits | inhibition, % at 25 µM | M. tuberculosis H37Rv growth with meropenem, percent inhibition; hits of this screen are not shown here;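 active = about 74% or more and at least 40 points above the plate without the antibiotic, then above 30% in a dose series; inconclusive = first-round hits that could not be retested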;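 also: growth measured after seven days incubation then overnight dye step; 0% = bacteria only wells and 100% = bacteria with antibiotic; twin plates without the antibiotic show which effects depend on it; some results filed as inactive read as strong as hits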
# RecA intein inh = Mtb RecA intein splicing inhibitors, primary screen, biochemical, fluorescence, HTS; Protein RecA (Mycobacterium tuberculosis (strain ATCC 25618 / H37Rv)), P9WHJ3; cell-free RecA intein splicing; inhibition, %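 (about 9 µM by stock and volumes)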; 290,000 compounds, 0.75% hits; AID 2221, 2009; in the data active = inhibition above about 30%; inconclusive = no clear call, values can overlap the other calls;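 also: 0% = vehicle wells and 100% = reference inhibitor control wells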
# Target sequence (P9WHJ3 whole entry, looked up): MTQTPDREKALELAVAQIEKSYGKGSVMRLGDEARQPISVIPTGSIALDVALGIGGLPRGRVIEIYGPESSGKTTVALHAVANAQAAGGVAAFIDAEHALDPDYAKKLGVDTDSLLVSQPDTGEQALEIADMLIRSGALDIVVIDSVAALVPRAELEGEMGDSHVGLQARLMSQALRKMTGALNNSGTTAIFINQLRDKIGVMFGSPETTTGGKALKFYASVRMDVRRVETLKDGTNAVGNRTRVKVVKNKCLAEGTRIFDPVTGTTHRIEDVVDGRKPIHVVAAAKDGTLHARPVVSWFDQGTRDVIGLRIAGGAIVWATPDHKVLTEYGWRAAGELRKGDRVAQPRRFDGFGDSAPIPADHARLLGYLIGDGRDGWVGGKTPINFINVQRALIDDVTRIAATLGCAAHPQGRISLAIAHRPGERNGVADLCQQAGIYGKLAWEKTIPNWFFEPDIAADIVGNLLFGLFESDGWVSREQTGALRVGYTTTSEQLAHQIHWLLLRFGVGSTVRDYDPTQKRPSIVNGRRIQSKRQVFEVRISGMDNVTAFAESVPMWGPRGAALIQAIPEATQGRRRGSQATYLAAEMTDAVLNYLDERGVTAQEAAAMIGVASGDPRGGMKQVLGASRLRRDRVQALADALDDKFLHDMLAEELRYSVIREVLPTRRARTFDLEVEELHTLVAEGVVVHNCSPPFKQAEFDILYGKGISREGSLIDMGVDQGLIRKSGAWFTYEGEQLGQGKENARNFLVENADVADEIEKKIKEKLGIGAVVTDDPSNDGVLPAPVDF
# YopH PTP inh = YopH tyrosine phosphatase inhibitors, primary screen, biochemical, fluorescence Ex485/Em525; YopH tyrosine phosphatase [Yersinia enterocolitica]; inhibition, %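 (about 10 µM by stock and volumes)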; 140,000 compounds, 0.16% hits; AID 898, 2007;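 active = inhibition of 50% or more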;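 also: controls were vehicle for no effect and minimum signal wells for full effect; inactives centre near -20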
# Arbovirus inh repeat = further read-out of Arbovirus inh, marked with its call; inhibition, %; measured here: 10K subset replicate screen; many hits read low in the repeat;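 first of two repeat runs on a subset; 0% = infected and 100% = uninfected wells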
# The depositor's hits bear a star; ? = inconclusive; nt = no result given. Only part of the results is shown; rates above refer to the full screens.
SMILES,Arbovirus inh,Mtb growth,Mtb betalactam,RecA intein inh,YopH PTP inh,others
CCOc1cc(/C=N/OC(C)=O)ccc1OCc1ccccc1,-8,8%,5,1.3,nt,
CC(NC(=O)CSc1nnc(CC(=O)Nc2ccc(Cl)c(Cl)c2)n1C)c1ccccc1 (stereo not given),7,-5%,-2,3.1,-24,
CCC(=O)Nc1ccc2nc(C)n(Cc3ccccc3Cl)c(=O)c2c1,-6,6%,-10,0.1,-15,
CC(C)C(NC(=O)OCc1ccccc1)C(=O)NC(Cc1ccc(O)cc1)C(=O)O (stereo not given),nt,nt,-1,-2.2,nt,
C=CCNC(=O)/C(=C\C=C\c1ccccc1)NC(=O)c1ccc(OCCCC)cc1,-12,-1%,27,8.2,-22,
Cc1ccc(S(=O)(=O)N(C)c2ccccc2)cc1,-7,-6%,-6,6.4,-18,
Clc1ccc(CSc2nnc(-c3ccccn3)n2Cc2ccco2)c(Cl)c1,5,1%,4,1.8,-47,Arbovirus inh repeat=-12
CC(C)CNC(=O)CC(c1ccccc1)c1c(O)ccc2ccccc12 (stereo not given),-10,-6%,-6,-2.9,6,
Cc1cccc(C(=O)N2CCN(c3ccc([N+](=O)[O-])c(N4CCOCC4)c3)CC2)c1,1,-2%,-9,3.3,1,
COc1ccc(NC(=O)Nc2cc(C)ccc2OC)cc1,-2,-14%,-8,4.7,-23,
COc1cc(NS(=O)(=O)c2ccc(NC(C)=O)cc2)nc(OC)n1,-6,-8%,-4,-1.6,-28,
N#CCCN1CCn2c1nc1ccccc12,7,1%,-14,0.0,-36,
Cc1cccc(Nc2ccc(C(=O)N3CCOCC3)cn2)c1,4,-5%,1,-2.1,nt,
O=C(CSc1ccc2nnc(-c3cccnc3)n2n1)NCc1ccc2c(c1)OCO2,-1,8%,-3,-1.7,-10,
CCCNC(=O)c1ccc2c(=O)c(O)c(-c3ccsc3)[nH]c2c1,nt,3%,0,-79,nt,
O=[N+]([O-])c1cc(S(=O)(=O)C(F)(F)F)ccc1Sc1nc2ccccc2s1,-33,0.7µM*,99,85*,-44,
COc1c(-c2ccc([N+](=O)[O-])cc2[N+](=O)[O-])c(=O)n(C)c(=O)n1C,nt,nt,1,-4.2,nt,
CS(=O)(=O)c1nc(-c2ccco2)cc(C(F)(F)F)n1,-46,13%,100,40*,-40,
COc1cc(CN2CCN(C(O)(c3ccccc3)c3ccccc3)CC2)cc(OC)c1OC,nt,nt,-2,0.3,nt,
COc1ccc(Cl)cc1NC(=O)CNCC(c1ccccc1)N(C)C (stereo not given),-3,9%,-5,2.7,nt,
N#CC1=C2SCN(c3ccccc3)CN2C(=O)CC1c1ccccc1Cl (stereo not given),14,-5%,7,0.7,-32,Arbovirus inh repeat=2
CC(C)OC(=O)c1cc2ccccc2[nH]1,0,-2%,-1,-1.1,-16,
Cc1ccc(NS(=O)(=O)c2ccc3c(c2)oc(=O)n3C)cc1C,nt,nt,-1,0.8,nt,
COC(=O)c1ccc(NC(=O)CCc2c(C)nc3ncnn3c2C)cc1,-3,-4%,4,3.3,-54,
Cc1nnc(NC(=O)CSc2nnc(Cc3cccn3C)n2-c2cccc(C(F)(F)F)c2)s1,4,4%,4,-6.7,-35,Arbovirus inh repeat=2

# (more compounds)
SMILES,Arbovirus inh,Mtb growth,Mtb betalactam,RecA intein inh,YopH PTP inh,others
Cc1cnn(CCC(=O)NNC(=S)Nc2cccc(Cl)c2)c1,0,-7%,-15,-0.3,-35,
O=C(Nc1ccccc1)Nc1cnccn1,nt,nt,-5,-3.8,nt,
CCc1cc(C(c2cccc(OC)c2)N2CCOCC2)c(NC(=O)c2ccccc2)s1 (stereo not given),15,2%,38,-0.2,-32,
CCCC1C(C(=O)OCC)=C(C)NC(C)=C1C(=O)OCC,-12,-1%,-6,-3.6,-51,
CCC/C(O)=C1\C(=O)CCCC1=NCCCCCC(=O)O,12,1%,-10,-1.5,3,
O=C(NCC1CCCO1)C(=Cc1cccc([N+](=O)[O-])c1)C(=O)NCC1CCCO1 (stereo not given),15,0%,1,19,-9,
Nc1cccc2nsnc12,nt,-2%,3,10,nt,
C/C=C1\COC(C(=O)NCCCN2CCCC2=O)(C(F)(F)F)C=C1C=C(C)C (stereo not given),nt,-1%,-10,-0.2,nt,
CCOCCCNC(=O)C(c1ccc(Cl)cc1)N1CCC2(CC1)OCCO2 (stereo not given),6,-15%,-9,-1.5,-48,Arbovirus inh repeat=8
FC(F)Oc1ccc(NC(=S)NCc2ccccc2)cc1Cl,-19,10%,1,4.9,-7,
COc1ccc(S(=O)(=O)N2CCCC2)cc1C(C)C,-5,8%,1,3.8,nt,
O=C(Oc1ccc2c3c(c(=O)oc2c1)CCCC3)c1ccco1,9,25%,2,9.9,-25,
Cc1ccccc1NC(=O)CSc1nc(N)c2c3c(sc2n1)CSC(C)(C)C3,13,54%,83,6.1,6,
O=C(CSc1cccc2cccnc12)OCC(=O)c1ccccc1,-2,-12%,-9,-1.9,-38,
CCc1nnc(SCC(=O)NCCC2=CCCCC2)nc1CC,nt,nt,12,3.7,nt,
CC1CCCN(C(=O)CN(C)S(=O)(=O)c2ccc3c(c2)c(=O)n(C)c(=O)n3C)C1 (stereo not given),nt,nt,-1,-0.5,nt,
Cc1ccccc1Cc1c(C)nc2ncnn2c1C,-1,-1%,8,-0.5,-25,
CN(Cc1ccccc1)c1ccc([N+](=O)[O-])cc1C(=O)O,2,2%,-6,0.7,nt,
O=C(Nc1ccc(S(=O)(=O)N2CCOCC2)cc1)c1cccc(Br)c1,nt,nt,-3,1.0,nt,
Cc1ccc(-n2c(C)nn(CC#N)c2=O)cc1,7,4%,-6,1.3,nt,
Cc1cc(C)nc(N2CCCC(CCC(=O)NCc3ccc(F)c(F)c3)C2)n1 (stereo not given),1,0%,12,-1.7,nt,
Cc1cc(NC(=O)CSc2nc3c(cc2C#N)CCCCC3)no1,-15,0%,-1,12,nt,
CN(CCO)CCC(=O)NC1(C)CS(=O)(=O)CC1S(=O)(=O)O (stereo not given),nt,-3%,-9,-12,nt,
CCN(CC)CCn1c2c(c(SCC(=O)Nc3nc4ccccc4s3)nc1=O)CCCC2,nt,nt,5,-1.9,nt,
CC1CCN(CC(O)COc2cccc(F)c2)CC1 (stereo not given),0,-6%,-5,-0.2,nt,Arbovirus inh repeat=-1

# The list goes on:
SMILES,Arbovirus inh,Mtb growth,Mtb betalactam,RecA intein inh,YopH PTP inh,others
Cc1cc(=O)oc2cc(OCc3ccc(C(=O)N4CCN(c5ccc([N+](=O)[O-])cc5)CC4)cc3)ccc12,4,-1%,nt,-2.0,-22,
COc1ccc(NC(=O)C2CCCN2C(=O)OCc2ccccc2)c(OC)c1 (stereo not given),-4,2%,-7,1.5,-33,
O=C(Cc1ccccc1)NNc1c2ccccc2nc2ccccc12,-8,7%,3,-2.4,nt,
Cc1cc(N)n(Cc2ccc(Cl)cc2)n1,-3,-6%,-6,1.5,nt,
O=C(Nc1ccc2c(c1)C(=O)NC2=O)c1ccc2ncsc2c1,7,0%,4,-0.4,nt,
COCC(C)NC(=O)C(C)Oc1ccccc1 (stereo not given),4,4%,1,-1.2,-25,
O=C(NCc1ccco1)NC12CC3CC(CC(C3)C1)C2,1,-15%,-13,-6.1,-10,
Cc1ccc(NC(=O)c2ccc(S(=O)(=O)N3CCOCC3)cc2)nc1,0,0%,-5,1.3,-19,
Cc1cccc(N(C(=O)CNC(=O)c2ccco2)C(C(=O)NC2CCCCC2)c2cccnc2)c1 (stereo not given),nt,nt,4,-2.2,nt,
C=CCNC(=O)CN1CCC(n2c(C)nc3cc(C(F)(F)F)ccc32)CC1,0,-13%,-3,-3.3,-31,
CCC(CC)NC(=O)c1cc(OC)c(OC)cc1[N+](=O)[O-],-1,3%,-2,-5.4,-22,
COc1cccc(C2NC(=O)NC(C)=C2C(=O)Nc2ccc(C)cc2)c1 (stereo not given),4,1%,-3,1.7,-11,Arbovirus inh repeat=-2
O=C(O)CCCNC(=O)CCCn1nnc2ccccc2c1=O,nt,-6%,-5,2.6,nt,
CCN(Cc1ccccc1)S(=O)(=O)c1cc(C(=O)O)ccc1OC,14,-15%,-3,-2.2,nt,
CN(C)CCCNc1ncc(C(F)(F)F)cc1Cl,4,4%,5,-2.3,nt,
CC(C)N1CCC(n2nccc2NC(=O)c2ccc3c(c2)OCO3)CC1,nt,nt,?,0.9,nt,
Cc1[nH]c(=O)c(C#N)c(C)c1Cl,nt,-6%,0,1.7,nt,
Cc1nn(-c2ccc(N3CCOCC3)nn2)c(C)c1CCC(=O)Nc1ccc(F)cc1,nt,nt,-7,-2.2,nt,
Cc1ccc(C2(c3noc(CN(C)CC4CCCCO4)n3)CCCC2)cc1 (stereo not given),1,-8%,-2,5.6,nt,
O=C(CS(=O)(=O)Cc1ccccc1)NCc1ccc2c(c1)OCO2,-1,-4%,-3,-2.1,-4,
O=C(O)c1ccccc1C(=O)N1CCN(c2cccc(Cl)c2)CC1,8,-5%,1,-3.0,-6,
O=C(Nc1ccccc1)O/N=C/c1ccc(F)cc1,nt,nt,2,0.2,nt,
CN1C(=O)N(c2ccc(Cl)cc2)C(C)(O)CC1(C)C (stereo not given),nt,nt,0,-1.1,nt,
Cc1ccc(N(CC(=O)N/N=C/c2ccco2)S(=O)(=O)c2ccccc2)cc1,0,2%,-3,2.4,-20,
O=S(=O)(Nc1ccc(-c2csc(-c3ccccc3)n2)cc1)c1ccccc1,-35,1%,5,5.2,-18,

# (further entries)
SMILES,Arbovirus inh,Mtb growth,Mtb betalactam,RecA intein inh,YopH PTP inh,others
COc1ccc(-c2ccc(-c3noc(C4CCCCC4)n3)c(OC)n2)cc1,15,nt,96,-3.9,-23,
Cc1[nH]n(-c2ccccc2)c(=O)c1/C=N/NC(=O)c1ccccc1F,nt,nt,97,6.9,nt,
CN(C)/C(Cn1cncn1)=C1/N=C(c2c(F)cccc2F)OC1=O,13,5%,-5,-0.9,nt,
Cc1ccc(S(=O)(=O)N2CCSC2C(=O)O)cc1 (stereo not given),5,-5%,-2,1.2,-29,
C=CCn1c(=O)c2c(nc3n2CC(C)CN3c2cccc(OC)c2)n(C)c1=O (stereo not given),1,1%,2,-1.9,-47,Arbovirus inh repeat=7
CCC(C)Nc1nc(N)c([N+](=O)[O-])c(NC2CCCCC2)n1 (stereo not given),nt,nt,1,1.8,nt,
